Source: PubChem
B2AR ag – human beta-2 adrenergic receptor agonism by FAP; Am2.2-beta2AR cells, FAP receptor internalization, flow cytometry; reference of the scale not given here; P07550; response, % (no concentration beside the values); 0.43% of 340,000 active; AID 504454;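 active = response above a set limit, near 3 SD of response in nonfluorescent compounds, cut at about 42% in these data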;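 also: stock transfer was 100 nL into about 11 µL; a reference agonist was the positive control; negative values mostly stem from fluorescent compounds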
Target sequence (P07550 whole entry, looked up): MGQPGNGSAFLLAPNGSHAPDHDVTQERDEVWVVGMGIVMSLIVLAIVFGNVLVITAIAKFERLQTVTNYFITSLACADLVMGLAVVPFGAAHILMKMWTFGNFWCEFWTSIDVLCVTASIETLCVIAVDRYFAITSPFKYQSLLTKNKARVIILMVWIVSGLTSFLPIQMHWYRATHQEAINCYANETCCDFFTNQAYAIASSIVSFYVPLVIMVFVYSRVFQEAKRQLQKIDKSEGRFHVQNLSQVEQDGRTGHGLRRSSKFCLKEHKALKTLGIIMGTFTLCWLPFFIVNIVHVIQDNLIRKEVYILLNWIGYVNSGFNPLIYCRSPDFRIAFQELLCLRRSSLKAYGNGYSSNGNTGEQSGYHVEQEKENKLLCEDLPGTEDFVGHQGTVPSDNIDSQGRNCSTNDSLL
ALR H2O2 inh – inhibitors of human sulfhydryl oxidase ALR. purified ALR, DTT oxidation, H2O2 HRP-luminol luminescence. 3.8% of 290,000 active. inhibition, % (concentration not given with the values). AID 485317;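 active = mean and each replicate at 75% or more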;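 also: stock transfer was 7.5 nL into about 7.5 µL; 0% = neutral wells and 100% = wells with inactivated enzyme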
Target sequence (P55789 whole entry, looked up): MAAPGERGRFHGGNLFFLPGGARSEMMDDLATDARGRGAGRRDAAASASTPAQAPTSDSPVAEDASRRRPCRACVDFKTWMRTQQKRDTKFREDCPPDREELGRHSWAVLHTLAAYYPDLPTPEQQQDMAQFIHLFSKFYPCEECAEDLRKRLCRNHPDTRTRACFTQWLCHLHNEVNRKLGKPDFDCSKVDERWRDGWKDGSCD
UCH37 inh – blocks the human deubiquitinase UCH37 | inhibition, % (test concentration not listed) | Q9Y5K5 | 0.33% of 330,000 active | purified proteasome/UCH37, Ub-AMC cleavage fluorescence;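 active = mean of two replicates above 20%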;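 also: 0% = compound-free wells with enzyme and 100% = wells lacking proteasome; stock transfer was 100 nL into about 20 µL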
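Material: human UCH37 enzyme supplied as purified proteasome complex / Amount: 0.15 nM proteasome as dispensed / Buffer or medium: pH 7.4 Tris-HCl (50 mM) with ovalbumin, ATP-MgCl2, DTT / Times: preincubation 30 min, reaction 25 min, room temperature / Technique: AMC fluorescence from Ub-AMC cleavage, excitation 355 nm, emission 460 nm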
Ecoli growth – inhibitors of Escherichia coli growth; OD600 absorbance (no concentration beside the values); OD600, 23 h; hits give low values; 0.21% of 330,000 active;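 active = OD600 absorbance below the run mean of sample wells minus 3.6 SD, in any replicate, cut at about 0.56 in these data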;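 also: stock transfer was 300 nL into about 60 µL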
HNF4A DNA FP – change in binding of human HNF4 alpha to DNA; HNF4a-FITC DNA binding, fluorescence polarization, 1 h; activity change, % at 10 µM; 0.3% of 360,000 active; in the data active = activity change above about 30%, passing the limit was not always enough;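 also: controls were the assay level and a saturating level of protein; the project sought stronger binding though the title names inhibitors; some compounds called inactive have numbers as strong as hits; positive values seem to mean higher polarization but the record does not say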
Target sequence (P41235 whole entry, looked up): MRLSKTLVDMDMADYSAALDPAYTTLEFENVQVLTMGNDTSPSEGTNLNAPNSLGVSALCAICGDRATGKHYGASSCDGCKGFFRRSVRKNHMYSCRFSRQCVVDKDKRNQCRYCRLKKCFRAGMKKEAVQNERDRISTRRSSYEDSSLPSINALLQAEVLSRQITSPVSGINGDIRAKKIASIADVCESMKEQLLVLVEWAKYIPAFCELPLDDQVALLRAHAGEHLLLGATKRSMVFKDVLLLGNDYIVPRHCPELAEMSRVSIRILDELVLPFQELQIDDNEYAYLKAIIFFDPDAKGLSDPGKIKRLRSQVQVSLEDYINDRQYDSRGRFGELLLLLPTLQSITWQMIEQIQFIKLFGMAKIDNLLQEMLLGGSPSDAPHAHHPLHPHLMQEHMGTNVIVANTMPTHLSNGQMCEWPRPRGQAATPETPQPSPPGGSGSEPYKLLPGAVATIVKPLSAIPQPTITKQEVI
LANA-H2A inh – blocks KSHV LANA binding to histone H2A/H2B; Q9QR71; inhibition, % (test concentration not listed); 0.6% of 320,000 active; AID 2629; cell-free LANA-H2A/H2B peptide, fluorescence polarization; in the data active = inhibition mostly above about 10%, no sharp cut-off; inactive = mostly below about 6.7%;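 also: stock transfer was 7.5 nL into about 10 µL; 0% = median of vehicle wells and 100% = median of positive control wells; one replicate is shown; the record names a cut of 25% in any replicate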
FGF22 binding – FGF22 (human) thermal shift binding | recombinant FGF22 thermal shift, SYPRO orange fluorescence; percent of sucrose octasulfate shift, DMSO zero | 1.5% of 340,000 active | calls only at 9.99 µM | AID 651658 | Q9HCT0;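 active = melting point raised past a set limit in the mean and every replicate; three in four hits are not shown here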
Starred values were filed as active, the others as inactive; i = inactive; . = not tested or not shown.

B2AR ag	ALR H2O2 inh	UCH37 inh	Ecoli growth	HNF4A DNA FP	LANA-H2A inh	FGF22 binding	Compound
17	-6	3.5	0.72	2.1	-2.4	.	Fc1ccc(CNn2cnnc2SCc2ccc(F)cc2)cc1
5	.	.	.	-1.7	-4.6	.	N#C/C(=N\Nc1ccccc1Cl)C(=O)c1ccccc1
-5	13	5.4	0.66	-3.6	-4.0	i	C=CCSc1nnc(NC(=O)c2nc(SCC)ncc2Cl)s1
-10	-5	1.3	0.72	-1.0	1.1	.	Cc1cc(C)c(S(C)(=O)=O)c(Oc2ccccc2C)n1
8	73	-22	0.64	0.6	-1.7	i	N#C/C(=C\c1ccccc1O)C(=O)Nc1ccccn1
3	-23	0.1	0.63	-1.4	-13	i	CCOC(=O)C1CCCN(CCSc2ccc(C)cc2)C1 (centres undefined)
-9	-3	4.4	0.7	-1.9	1.8	i	CSc1ccc(C(=O)C2CCCN(S(=O)(=O)c3c(C)noc3C)C2)cc1 (centres undefined)
3	-11	-1.0	0.71	-1.5	-2.2	.	O=C(CN1CCCCCC1)Nc1ccc(F)c(F)c1F
-5	-5	3.8	0.73	-5.1	-1.6	i	CCOC(=O)N1CCN(C(=O)C2CCC(=O)N(Cc3cccc(C(F)(F)F)c3)C2)CC1 (centres undefined)
3	1	6.5	0.7	2.2	0.5	i	Cc1ccc(NC(=O)CN(C)C(=O)c2ccccc2OCc2c(C)noc2C)cc1
-3	3	2.0	0.62	-0.5	2.9	i	COc1cc2c(cc1OC)[C@@H](Cc1ccc(OCCC#N)cc1)N(C)CC2
-15	-6	-3.1	0.7	1.6	-0.2	.	Cc1ccc(-c2nnc(N(C)C(=O)c3cccnc3)s2)cc1
-6	37	4.1	0.73	6.3	2.7	.	CCn1c(SCC(=O)Nc2sc(C)c(C)c2C#N)nnc1C(C)C
-48	55	-3.2	0.66	12	-2.3	i	COc1ccc2c(C)cc(SCC#N)nc2c1
1	-11	-0.2	0.73	1.5	1.5	.	O=c1[nH]nc(Cc2ccc(-c3cccc(Cl)c3)o2)c2ccccc12
-123	.	8.8	0.68	26	.	i	N#C/C(=C/C1=C(N2CCOCC2)C(=C/c2ccc(Cl)cc2Cl)/CC1)C(=O)Nc1ccccc1F
-8	-6	0.7	0.7	-2.8	4.0	i	CCS(=O)(=O)N1CCN=C1SC(C)c1ccccc1 (centres undefined)
11	-28	0.5	0.71	-1.5	0.7	.	CC(CN(C)Cc1ccccc1)OC(=O)c1ccccc1F (centres undefined)
-5	-6	2.0	0.68	3.3	5.1	.	CCCCN(C)C(=O)C1CCN(Cc2ccccn2)CC1
10	-25	1.2	0.72	0.8	-5.0	.	CCSc1nc2ccccc2n1CC(N)=O
-3	-1	.	.	-1.1	-5.3	i	COc1ccc(Br)cc1S(=O)(=O)NNC(=O)c1c(C)nc2ccccn12
17	.	.	.	1.1	.	i	Cc1nc(N2CCN(S(=O)(=O)c3ccccc3)CC2)c2c3c(sc2n1)CC(C)CC3 (centres undefined)
5	.	5.6	0.77	-1.7	-5.3	.	COc1ccc(C(=O)c2ccc(Cl)cc2)cc1
-9	2	.	.	3.5	-1.1	i	Cc1ccc2c(c1)c1nnc(SCC(=O)NC3CC3)nc1n2C
0	-4	-26	0.73	-2.3	6.2	i	COc1ccc(C2CC(c3c(-c4ccccc4)c4cc(Cl)ccc4[nH]c3=O)=NN2C(=O)CCC(=O)O)cc1 (centres undefined)
10	-4	-0.2	0.68	-1.2	-5.4	.	COc1cccc(-c2nc(CC(=O)O)cs2)c1OC
-2	.	0.4	0.66	2.0	.	i	O=C(NNC(=O)c1cc2ccccc2o1)c1ccc(F)cc1
-4	-18	6.3	0.71	2.2	-0.4	i	COc1cc(C(=O)NC2CC3CCCC(C2)N3Cc2ccccc2)cc(OC)c1OC (centres undefined)
5	-1	-0.9	0.68	-0.2	1.3	.	N#CC1(c2ccccc2)CCCN1C(=O)c1ccccc1Cl (centres undefined)
8	-6	3.0	0.75	-2.6	-0.4	.	Cn1nnc(NC(=O)CSc2ccc(Cl)cc2)n1
2	8	0.9	0.71	-0.3	1.8	.	CC(=O)Nc1ccc(S(=O)(=O)NNC(=O)c2ccc(C)cc2)cc1
-6	5	6.1	0.68	-2.7	1.5	i	Cc1nnc2c(N(C)S(=O)(=O)c3ccccc3)nc3ccccc3n12
-2	-9	-2.2	0.71	3.1	-1.7	i	CCOc1ccc(Cc2onc3c2C(=O)CCC3)cc1OCC
10	62	4.0	0.62	0.6	-0.4	i	Fc1ccc(N2CCN(Cc3cn[nH]c3-c3ccccc3)CC2)cc1
-5	11	.	.	-0.4	-4.0	.	CC(C)(C)NCc1cccn1-c1sc2c(c1C#N)CCCC2
2	.	-2.7	0.71	0.1	.	i	Cn1c(=O)c2[nH]c(CCc3ccncc3)nc2n(C)c1=O
0	-9	2.4	0.69	-2.3	3.8	i	CC(C)(C)C(=O)COC(=O)C1=NN(c2ccccc2)C(=O)CC1
-6	.	-20	0.67	-7.0	1.3	i	CC1CN(C2=Nc3cccc4cccc2c34)CC(C)O1 (centres undefined)
-4	0	4.9	0.72	0.2	3.0	.	O=C(CN1CCOCC1)Nc1ncc(Cc2ccccc2Cl)s1
8	18	-4.1	0.71	2.4	2.2	i	Cc1ccc(C(=O)Nc2ccc(-c3csc(C)n3)cc2)cc1
3	-12	4.7	0.7	1.6	-2.8	i	O=C(Nc1ccc(F)cc1F)c1ccc(S(=O)(=O)N2CCCCC2)cc1
12	-6	2.9	0.68	2.1	1.6	i	CCc1nc2ccc(C(=O)NCCc3ccc(OC)c(OC)c3)cc2nc1CC
0	-17	2.9	0.68	1.7	-1.9	.	CCNC(=S)N1CCN(c2ncccn2)CC1
-4	.	-480	0.7	-0.7	.	i	O=c1ccc2ccc(O)cc2o1
-4	.	0.9	0.63	2.8	.	i	COc1ccc(N2CC(C(=O)NCCc3ccc(Cl)cc3)CC2=O)c(OC)c1 (centres undefined)
8	-1	-0.2	0.73	-0.2	1.7	i	CC(=N[C@@H]1CCCC[C@H]1N=C(C)c1ccccc1O)c1ccccc1O
-1	-3	3.7	0.7	1.6	-2.6	i	CCOc1ccc(NC(=O)CN(C)C(=O)CCc2ccccc2Cl)cc1OCC
13	0	3.0	0.63	-0.1	-1.1	i	O=C(NC1CCCc2ccccc21)c1ccc(F)cc1F (centres undefined)
-9	2	-1.7	0.75	-1.0	5.2	.	COc1cccc(OC)c1OCCCOc1c(OC)cccc1OC
-4	4	.	.	-1.8	0.6	i	Cc1ccccc1CN(C)C(=O)[C@H](Cc1ccccc1)NC(=O)c1ccco1
1	-2	1.7	0.71	-1.6	-3.9	.	Cc1ccc(SCC(=O)NCCCN2CCOCC2)cc1
-5	6	0.9	0.7	4.6	9.6	.	c1ccc2oc(SCc3nc4ccccc4s3)nc2c1
2	-15	-6.6	0.65	-5.7	0.2	i	O=C(O)CCCCCCNC(=O)c1cncc(O)c1
1	.	2.0	0.66	2.7	1.8	i	Cn1c(SCC(=O)Nc2ccc3c(c2)OCCO3)nnc1-c1ccncc1
4	2	0.1	0.61	2.4	-3.8	i	COC(=O)c1ccccc1NC(=O)CC(=O)Nc1ccccc1C(=O)OC
-1	0	.	.	-2.4	-3.8	i	NC(N)=NS(=O)(=O)c1ccc(N)cc1
-5	0	4.8	.	2.8	-3.8	.	O=C(c1cccs1)N1CCN(C/C=C/c2ccccc2)CC1
6	-37	2.4	0.75	-0.3	3.5	.	O=S1(=O)CCN2C(c3ccco3)=CSC2=N1
10	-6	-165	0.75	-0.4	-11	i	COC(=O)C1=CN(c2cccc(Cl)c2)C=C(C(=O)OC)C1c1cccc(OC)c1
8	-4	0.9	0.77	-0.2	0.2	.	CC(C)c1ccc(NC(=O)C(c2ccc3c(c2)OCO3)N2CCC3(CC2)OCCO3)cc1 (centres undefined)

Record cards, as listed above. Order of values: B2AR ag	ALR H2O2 inh	UCH37 inh	Ecoli growth	HNF4A DNA FP	LANA-H2A inh	FGF22 binding
Cc1nnc2c(N(C)S(=O)(=O)c3ccccc3)nc3ccccc3n12 is entered as -6	5	6.1	0.68	-2.7	1.5	i
CC(C)(C)NCc1cccn1-c1sc2c(c1C#N)CCCC2 is entered as -5	11	.	.	-0.4	-4.0	.
CC(=N[C@@H]1CCCC[C@H]1N=C(C)c1ccccc1O)c1ccccc1O is entered as 8	-1	-0.2	0.73	-0.2	1.7	i

Continued:
B2AR ag	ALR H2O2 inh	UCH37 inh	Ecoli growth	HNF4A DNA FP	LANA-H2A inh	FGF22 binding	Compound
-13	-3	0.7	0.69	0.1	-4.1	i	O=C(CSc1ccc(Br)cc1)Nc1ccccc1N1CCOCC1
-16	28	0.5	0.69	0.4	3.0	i	CCCc1nc2oc3c(=O)[nH]cnc3c2c2c1CCCC2
-9	54	2.3	.	-1.3	6.5	.	O=C(CC1Nc2cccc3cccc(c23)NC1=O)Nc1ccccc1 (centres undefined)
-2	-3	-0.2	.	-3.9	-0.9	i	CCOC(=O)[C@H]1[C@H]2COc3cc(OC)ccc3[C@@H]2N2C(=O)CN(Cc3ccccc3)C(=O)[C@@]12C
17	-5	0.8	0.66	-1.8	-3.2	i	COc1ccc(Cn2nnnc2CN2CCc3ccccc32)cc1
-1	4	-0.2	0.65	-2.3	2.7	i	CCCn1nnnc1NC(=O)COc1ccc(Br)cc1
-10	.	2.5	0.7	1.4	-7.4	i	O=C(Nc1cccc(S(=O)(=O)N2CCCCC2)c1)c1ccccn1
0	-1	4.6	0.77	-3.0	-6.0	.	O=C(O)c1ccc(NS(=O)(=O)/C=C/c2ccccc2)cc1
-3	0	4.7	0.69	-1.9	-1.7	i	Cc1ccc(C(=O)NCC(=O)OCC(=O)NCCc2ccccc2)s1
.	.	2.3	0.65	.	7.0	i	O=C1c2ccccc2S(=O)(=O)c2cc(N3CCN(c4ccccc4)CC3)ccc21
12	.	0.1	0.69	2.8	.	i	O=C(COc1ccc(Br)cc1)NNC(=O)c1cc(S(=O)(=O)N2CCOCC2)ccc1Cl
-1	-1	2.0	0.72	1.2	0.8	.	CCOC(=O)c1c(NC(=S)NCCc2ccccc2)sc2c1CC(C(C)C)OC2 (centres undefined)
3	2	-0.5	0.7	-2.0	1.0	i	CN(C)S(=O)(=O)Nc1cccc(-c2cn3c(n2)SCC3)c1
-4	3	1.4	0.7	0.8	0.5	i	CC1(C)CC(NC(=O)c2cccc(F)c2)CC(C)(C)N1
-1	-4	1.3	0.66	0.3	2.7	i	Cc1ccc(N2C(=O)Nc3ccccc3C2(O)C(=O)NCCCOC(C)C)cc1C (centres undefined)
.	12	2.9	.	.	-4.5	.	NC(=O)C(CC(=O)O)NC(=O)[C@@H]1CCOc2c(I)cc([N+](=O)[O-])cc2C(=O)N[C@@H](CO)C(=O)N[C@@H](Cc2ccc(O)cc2)C(=O)N1 (some centres undefined)
10	.	3.9	0.68	1.0	-1.2	i	COc1ccccc1NC(=O)c1ccc(S(=O)(=O)N(C)c2ccccc2OC)cc1
8	78*	5.7	0.69	-0.6	3.3	i	O=C1NC(C(=O)O)=CC(c2ccc([N+](=O)[O-])cc2)N1 (centres undefined)
2	0	2.2	0.68	1.4	-3.2	i	O=C(O)/C=C/c1ccc(Oc2ncccn2)cc1
4	-1	1.4	0.69	-2.3	1.4	.	c1coc(CNC2CCCCC2)c1
-7	.	-1.3	0.72	-1.4	-3.6	.	Cc1nc2ccc(S(=O)(=O)NC(CC(C)C)C(=O)O)cc2s1 (centres undefined)
-4	18	.	.	3.1	-0.8	.	COc1ccc(/C=C/C(=O)Nc2nonc2NC(C)=O)cc1
2	.	40*	0.73	2.3	-1.8	i	CC1CCCN(C(=O)c2ccc3c(c2)C(=O)N(CCC2=CCCCC2)C3=O)C1 (centres undefined)

UCH37 inh: hit marks shown above
B2AR ag	ALR H2O2 inh	UCH37 inh	Ecoli growth	HNF4A DNA FP	LANA-H2A inh	FGF22 binding	Compound
2	.	40*	0.73	2.3	-1.8	i	CC1CCCN(C(=O)c2ccc3c(c2)C(=O)N(CCC2=CCCCC2)C3=O)C1 (centres undefined)

This is a subset. The share of hits here may be higher or lower than overall.
